T cruzi repl – inhibitors of intracellular T. cruzi growth, primary screen, luminescence, NIH3T3 host cells | T. cruzi beta-gal in NIH3T3, 90 h | inhibition, % (test concentration not listed) | actives 1.4% (n = 300,000);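 active means mean inhibition across valid replicates above about 55%, limit read from the data; inconclusive means mean below that limit but half or more replicates reach it; inactive means mean below it, under half of replicates reach it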;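 further: signal also drops with host cell toxicity which is not excluded here; 0% = plate median of DMSO wells and 100% = zero luminescence signal; higher percent means less beta-gal luminescence so fewer parasites; stock transfer was 50 nL into about 50 µL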
Vif A3G – inhibitors of Vif binding to APOBEC3G peptide, primary screen, biochemical, TR-FRET, GST-Vif 1-94, biotin-A3G peptide, dose response retest (AID 1117319) | Virion infectivity factor (Human immunodeficiency virus type 1 group M subtype B (isolate … | TR-FRET GST-Vif / biotin-A3G peptide binding; higher % means a stronger effect; test concentration not given here; strong numbers were not always called active | inhibition, %, or IC50 in µM where a hit was titrated | actives 0.57% (n = 260,000);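 active means above the screen mean plus three standard deviations and confirmed in dose response; inconclusive means results disagree or hit not tested in dose response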;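 further: Vif residues 1-94 fused to GST binding biotinylated APOBEC3G peptide 110-148; 0% = full assay without inhibitor and 100% = GST in place of GST-Vif; retest series ran down from 100 µM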
Beta apoptosis – inhibitors of cytokine-induced beta cell apoptosis, primary screen, luminescence; INS-1E cytokine-induced death, ATP luminescence, 48 h; percent of positive-control rescue, neutral wells zero; protection from apoptosis, % (concentration not given with the values); actives 0.8% (n = 300,000); AID 435005, 2010;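 active means all replicates at 75% or more, or half of them and the mean; inconclusive means half reach 75% but not the mean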;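 further: 0% = cytokine-treated negative control wells and 100% = positive control rescue; higher means more ATP so stronger rescue from cytokine killing; wells of about 40 µL received 100 nL stock; the first replicate is given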
AF4-AF9 inh – inhibitors of AF4 peptide binding to AF9, primary screen, biochemical, AlphaScreen, biotin-AF4 peptide, FLAG-AF9, single point. actives 0.47% (n = 350,000). inhibition, % at 10 µM. Protein AF-9 (Homo sapiens), P42568;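 active means every replicate reaching a set inhibition limit, whatever the replicate mean, cut at about 25% in these data; inconclusive means mean inhibition reaches that limit but some replicates miss it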;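 further: 0% = plate neutral control median and 100% = total signal loss; the record names both 10 and 1 µM as test concentration; the first replicate is given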
Target sequence (P42568 whole entry, looked up): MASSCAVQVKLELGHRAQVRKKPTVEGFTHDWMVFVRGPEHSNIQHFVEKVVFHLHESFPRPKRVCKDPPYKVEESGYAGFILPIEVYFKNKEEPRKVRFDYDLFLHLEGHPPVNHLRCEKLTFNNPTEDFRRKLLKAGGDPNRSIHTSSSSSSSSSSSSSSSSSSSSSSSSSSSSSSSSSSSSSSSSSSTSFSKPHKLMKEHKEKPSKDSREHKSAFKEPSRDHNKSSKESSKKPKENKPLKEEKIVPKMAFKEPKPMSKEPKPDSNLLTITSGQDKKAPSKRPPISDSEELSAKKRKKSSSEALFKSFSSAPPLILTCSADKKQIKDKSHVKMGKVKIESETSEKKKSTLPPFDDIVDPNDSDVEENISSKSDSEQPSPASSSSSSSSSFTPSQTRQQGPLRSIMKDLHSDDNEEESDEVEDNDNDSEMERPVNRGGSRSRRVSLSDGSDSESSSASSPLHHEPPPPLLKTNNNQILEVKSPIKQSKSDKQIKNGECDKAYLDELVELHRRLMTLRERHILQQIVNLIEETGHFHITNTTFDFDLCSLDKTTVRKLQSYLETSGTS
Calb FLC – C. albicans growth inhibition with fluconazole, primary screen, CaCi-2 strain, Alamar Blue fluorescence. actives 0.57% (n = 300,000). C. albicans CaCi-2 (fluconazole-resistant clinical isolate) + fluconazole, 48 h. growth inhibition, % (test concentration not listed). AID 1979, 2009;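 active means most replicates above 75%; inconclusive means exactly half above 75%; inactive means most below 75%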;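 further: all wells also contain fluconazole at 8 µg/ml as a sub-toxic cotreatment; 0% = median of DMSO wells and 100% = median of geldanamycin control wells; wells of about 8 µL received 7.5 nL stock; the first replicate is given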
Bfl-1 A1 inh – caspase 3/7 activation in MEF A1-2A-BIM cells, primary screen, A1 inhibitor project, cell-based, luminescence, HTS | Caspase-Glo 3/7 luminescence, 3 h; percent of clofoctol response, vehicle zero | caspase activation, % (concentration not given with the values) | actives 0.066% (n = 330,000) | AID 2462, 2010;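 active means over half of replicate activation scores above 10%, or exactly half above 10 with the replicate mean above 10; inconclusive means replicate mean below 10 yet half the replicates above 10; inactive means over half of replicates below 10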;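 further: wells of about 30 µL received 50 nL stock; many hits fall short of the cut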
Ecoli rRNA inh – reduced GFP signal of wild-type E. coli, primary screen, bacterial rRNA inhibitor project, GFP/RFP fluorescence, OD600, single point; E. coli WT GFP vs humanized-ribosome RFP mutants, 24 h; hits give low values; DMSO median 0, no signal -100; GFP signal change (wild-type ribosome), % (concentration not given with the values); actives 1.6% (n = 350,000); AID 720706, 2013;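 active means significant combined selectivity score with lowered wild-type GFP, culture density cut under 30%, mutant RFP and density less affected; inactive means any of these conditions unmet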; further: one replicate is shown; some compounds called inactive have numbers as strong as hits
RanGTP-Imp inh – inhibitors of RanGTP-importin-beta interaction, primary screen, biochemical, FRET, CFP-Ran, YFP-importin-beta, homogeneous; Ran GTPase (GTP-bound) - importin-beta complex; cell-free CFP-Ran/YFP-importin-beta FRET ratio; inhibition, % (test concentration not listed); actives 1.1% (n = 300,000);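 active means most replicates above 15%; inconclusive means exactly half above 15%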;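 further: 0% = DMSO wells and 100% = Ran loaded with GDP instead of GTP; wells of about 40 µL received 100 nL stock; the first replicate is given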
Ecoli rRNA inh OD600 – recorded beside Ecoli rRNA inh, whose call it bears; OD600 change, %; measured here: OD600 growth;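 optical density of the mix in the first replicate; 0 = DMSO median and -100 = no signal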
Ecoli rRNA inh RFP – further read-out of Ecoli rRNA inh, marked with its call; RFP signal change, %; measured here: RFP humanized mutant strains;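 first replicate; 0 = DMSO median and -100 = no signal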
An asterisk follows results filed as active; ? = inconclusive; . = no result given.

molecule	Beta apoptosis	T cruzi repl	Ecoli rRNA inh RFP	Ecoli rRNA inh	Ecoli rRNA inh OD600	Bfl-1 A1 inh	Vif A3G	AF4-AF9 inh	Calb FLC	RanGTP-Imp inh
Cc1ccc2cc(CCNC(=O)C3CCCCC3)c(=O)[nH]c2c1C	-1	-11	-0.8	14	5	-0.8	.	1.0	17	4.2
CCOc1cc(C2C(C(C)=O)=C(O)C(=O)N2CCc2c[nH]c3ccccc23)ccc1O (stereo not given)	-4	-5	3.2	14	15	1.6	10%	-0.2	?	-4.3
COc1cc(C(=O)OCC(=O)N2CCCC2)cc(OC)c1OC	-2	-7	.	.	.	0.6	75%	.	.	-0.9
CCOC(=O)C1CCCN(Cc2ccccc2F)C1 (stereo not given)	-9	3	.	.	.	-0.1	22%	.	9	0.0
O=C(CSc1nnc(SCc2ccc(Cl)cc2)s1)N/N=C/c1ccccc1Cl	0	-1	.	.	.	-0.6	.	.	2	-0.6
CCOc1ccc(NC(=O)Cn2nnc(-c3ccccc3NC(=O)c3cccs3)n2)cc1	-2	4	.	.	.	-0.3	-12%	.	16	1.2
O=[N+]([O-])c1ccc(N2CCCC2)nc1	3	-7	43	3	2	-0.3	0%	0.6	-4	-3.4
COc1ccc(CCN2CC(C(=O)N(C)CCn3nc(C)cc3C)CCC2=O)cc1 (stereo not given)	-1	-3	-1.7	8	8	-1.2	6%	-4.8	-2	-1.3
Cc1onc(-c2c(F)cccc2Cl)c1C(=O)NCc1ccc(F)cc1	-7	-2	-1.8	0	0	-0.4	.	0.0	-8	-0.6
O/N=C/C1=C(Cl)c2ccccc2CC1	-6	-1	-23	-57	-76	-0.5	-6%	-7.4	-1	5.8
CCOC(=O)C1=C(C)N(CCCCCC(=O)O)C(=O)NC1c1ccccc1OS(=O)(=O)c1ccc(C)cc1 (stereo not given)	3	-4	2.1	-14	-16	2.4	.	16	-7	0.1
COC(=O)N/N=C/c1ccc([N+](=O)[O-])s1	-9	34	.	.	.	0.0	-1%	.	4	4.4
CCOc1ccccc1Oc1cn[nH]c1-c1ccc(OCC(=O)NN)cc1O	.	-6	0.0	-1	0	0.2	-3%	-1.1	8	?
Cc1cccc(NS(=O)(=O)c2cccc(C(=O)N3CC(C)OC(C)C3)c2)c1 (stereo not given)	-2	-11	0.5	7	-5	0.6	4%	-0.4	-5	3.2
CC(=O)Nc1ccc(NC(=O)C(C)Oc2ccccc2F)cc1 (stereo not given)	1	-12	.	.	.	0.2	29%	.	2	-0.3
Cc1cc(C)c(NC(=O)CSc2nc3ccc(NC(=O)CSc4nnnn4-c4ccccc4)cc3s2)c(C)c1	14	-1	2.4	24	17	-0.1	0%	0.2	-57	?
CCN1CCN(Cc2ccc(NC(=O)c3cc(NC(=O)c4cnn(-c5ccccc5)c4N)cc(OC)c3)cc2C(F)(F)F)CC1	109*	31	18	-2	-8	-0.2	-3%	14	9	-0.1
Cc1ccc(NC(=O)C2CCCN(C(=O)c3ccc(Cl)cc3)C2)c(C)c1 (stereo not given)	-1	-4	1.4	-8	-5	-0.1	9%	-2.6	24	1.9
Cc1c(C)n2c(SCC(=O)NC3CCCCC3)nnc2[nH]c1=O	-2	0	-3.0	11	9	-0.2	-9%	-40	0	-1.4
COc1cccc(CNC(=O)C2CCCN(S(=O)(=O)c3cccc4nonc34)C2)c1 (stereo not given)	-3	-1	.	.	.	0.5	25%	.	5	1.4
O=C(O)c1ccc2c(c1)NC(=O)C(N1CCCC1)S2 (stereo not given)	3	-5	.	.	.	0.5	-3%	.	-4	-2.9
CC(=O)Nc1nc(S(=O)(=O)c2ccc(C)cc2)c(Cl)s1	-5	-1	.	.	.	0.2	2%	.	-23	5.0
COCCNS(=O)(=O)c1ccc(C)c(C)c1C	-1	-7	-0.8	13	5	-0.2	-1%	-1.0	-10	?
COc1ccc(OCc2nnc(SCC(=O)c3c(N)n(C)c(=O)n(C)c3=O)n2-c2ccccc2F)cc1	-5	13	.	.	.	0.3	-14%	.	-1	-2.6
O=C(O)c1cc(NC(=S)NC(=O)C(c2ccccc2)c2ccccc2)ccc1Cl	-3	.	-2.7	-32	-51	1.1	-4%	-8.7	4	-4.8
CCOC(=O)c1[nH]c(C)c(C(=O)N2CCN(c3ccccc3OC)CC2)c1C	-1	-8	0.3	2	-1	1.2	.	0.5	25	4.9
COc1ccccc1C(=O)NCCC(=O)NC1CCC(C)CC1 (stereo not given)	0	.	6.0	6	3	0.8	-3%	-1.7	.	.
COc1ccc(-c2sc(NC(C)=O)nc2-c2ccccc2)cc1	-1	5	.	.	.	?	.	.	-5	3.7
CCN1CCN(C(=O)CSc2nc3c(c(=O)n(C)c(=O)n3C)n2C)CC1	1	-4	-1.7	-1	-1	-0.6	.	-1.6	-17	-0.5
COc1cccc(-c2nnn(CC(=O)N(CC(C)C)C3CCS(=O)(=O)C3)n2)c1 (stereo not given)	-3	-2	-0.1	10	7	-1.6	-2%	-2.7	.	?
Cn1cccc1C(=O)C(=O)Nc1cc(Cl)cc(Cl)c1	13	7	.	.	.	-14	-1%	.	-3	?
CCc1ccc(N2C(=O)C(Cl)=C(N3CCOCC3)C2=O)cc1	.	4	5.5	22	11	-0.1	21%	-1.7	-8	-2.2
Cc1cc(C)cc(OCC(=O)NNC(=O)c2cc3ccccc3o2)c1	4	-10	-0.1	-16	-21	0.4	3%	-1.8	9	?
CC(=O)Nc1ccc(S(=O)(=O)NCC2CCC(C(=O)NCCCN3CCCC3=O)CC2)cc1 (stereo not given)	-9	-3	.	.	.	-0.5	-3%	.	1	-3.1
COc1ccc2nc(NC(=O)CSc3nc(C)cc(=O)[nH]3)sc2c1	-4	-8	.	.	.	0.0	2%	.	13	-1.8
Cc1ccc(S(=O)(=O)N2CCCCC2)cc1NC(=O)COC(=O)Cc1cccc2ccccc12	-7	-5	.	.	.	0.0	13%	.	-8	1.9
COc1cccc(CN2CC(C(=O)NCc3ccc(C)o3)CCC2=O)c1 (stereo not given)	.	-6	-0.2	2	10	.	.	0.3	14	?
COc1cc(NC(=O)c2ccc(-c3cccc(F)c3)o2)ccc1NC(=O)c1ccccc1Cl	-4	.	16	-1	7	-0.9	.	-1.1	.	.
CSCCC(NC(=O)c1ccco1)C(=O)N1CCC(C(N)=O)CC1 (stereo not given)	-3	-12	-2.9	7	13	0.4	1%	-2.3	6	-0.6
COc1ccc(C(=O)C2CCCN(Cc3nc4ccccc4nc3C)C2)cc1OC (stereo not given)	2	14	1.8	-8	1	-0.6	.	1.9	22	-1.8
O=C(NCCc1ccncc1)Nc1ccc(Cl)cc1	1	7	.	.	.	0.4	-7%	.	0	-1.3
CCc1nc(CN2CCN(Cc3ccc(F)c(F)c3)C(CCO)C2)c(C)[nH]1 (stereo not given)	-6	15	3.2	11	4	1.0	?	2.4	-19	4.4
CC(=O)c1cccc(NC(=O)c2cccc(NC(=O)c3ccco3)c2)c1	.	3	0.4	7	8	-0.3	.	0.9	1	0.9
Cc1nc(=O)c(-c2ccccc2)c(C)n1-c1ccccc1Cl	-1	-6	.	.	.	0.2	.	-0.2	-2	-0.4
CCN(C(=O)COC(=O)c1cc2c(s1)CCCCC2)C1CCS(=O)(=O)C1 (stereo not given)	-2	-6	7.0	11	12	-0.6	.	-0.3	4	7.7
COCc1cc(C)nc(N2CCNCC2)c1C#N	-1	-3	.	.	.	0.7	0%	.	-7	3.2
CCCCNC(=O)C1CCCN1S(=O)(=O)c1cccc2nsnc12 (stereo not given)	-7	0	-2.9	4	3	-0.4	20%	1.4	2	0.4

A portion of the library; rates above refer to the full screens.
